rRNA inh HTS: reduced GFP signal of wild-type E. coli, primary screen, bacterial rRNA inhibitor project, GFP/RFP fluorescence, OD600, single point; E. coli WT GFP vs humanized-ribosome RFP mutants, 24 h; hits give low values; DMSO median 0, no signal -100; 350,000 compounds, 1.6% hits; GFP signal change (wild-type ribosome), % (concentration not given with the values);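 active means significant combined selectivity score with lowered wild-type GFP, culture density cut under 30%, mutant RFP and density less affected; inactive means any of these conditions unmet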; further: one replicate is shown; some compounds called inactive have numbers as strong as hits
Vif TR-FRET: inhibitors of Vif binding to APOBEC3G peptide, primary screen, biochemical, TR-FRET, GST-Vif 1-94, biotin-A3G peptide, dose response retest (AID 1117319) | Virion infectivity factor (Human immunodeficiency virus type 1 group M subtype B (isolate … | TR-FRET GST-Vif / biotin-A3G peptide binding; higher % means a stronger effect; test concentration not given here; strong numbers were not always called active | inhibition, %, or IC50 in µM where a hit was titrated | 260,000 compounds, 0.57% hits;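 active means above the screen mean plus three standard deviations and confirmed in dose response; inconclusive means results disagree or hit not tested in dose response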;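 further: Vif residues 1-94 fused to GST binding biotinylated APOBEC3G peptide 110-148; 0% = full assay without inhibitor and 100% = GST in place of GST-Vif; retest series ran down from 100 µM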
Beta cell apopt: inhibitors of cytokine-induced beta cell apoptosis, primary screen, luminescence | INS-1E cytokine-induced death, ATP luminescence, 48 h; percent of positive-control rescue, neutral wells zero | protection from apoptosis, % (concentration not given with the values) | 300,000 compounds, 0.8% hits | AID 435005, 2010;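 active means all replicates at 75% or more, or half of them and the mean; inconclusive means half reach 75% but not the mean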;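 further: 0% = cytokine-treated negative control wells and 100% = positive control rescue; higher means more ATP so stronger rescue from cytokine killing; wells of about 40 µL received 100 nL stock; the first replicate is given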
AF4-AF9 inh: inhibitors of AF4 peptide binding to AF9, primary screen, biochemical, AlphaScreen, biotin-AF4 peptide, FLAG-AF9, single point; Protein AF-9 (Homo sapiens), P42568; inhibition, % at 10 µM; 350,000 compounds, 0.47% hits;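 active means every replicate reaching a set inhibition limit, whatever the replicate mean, cut at about 25% in these data; inconclusive means mean inhibition reaches that limit but some replicates miss it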;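 further: 0% = plate neutral control median and 100% = total signal loss; the record names both 10 and 1 µM as test concentration; the first replicate is given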
Target sequence (P42568 whole entry, looked up): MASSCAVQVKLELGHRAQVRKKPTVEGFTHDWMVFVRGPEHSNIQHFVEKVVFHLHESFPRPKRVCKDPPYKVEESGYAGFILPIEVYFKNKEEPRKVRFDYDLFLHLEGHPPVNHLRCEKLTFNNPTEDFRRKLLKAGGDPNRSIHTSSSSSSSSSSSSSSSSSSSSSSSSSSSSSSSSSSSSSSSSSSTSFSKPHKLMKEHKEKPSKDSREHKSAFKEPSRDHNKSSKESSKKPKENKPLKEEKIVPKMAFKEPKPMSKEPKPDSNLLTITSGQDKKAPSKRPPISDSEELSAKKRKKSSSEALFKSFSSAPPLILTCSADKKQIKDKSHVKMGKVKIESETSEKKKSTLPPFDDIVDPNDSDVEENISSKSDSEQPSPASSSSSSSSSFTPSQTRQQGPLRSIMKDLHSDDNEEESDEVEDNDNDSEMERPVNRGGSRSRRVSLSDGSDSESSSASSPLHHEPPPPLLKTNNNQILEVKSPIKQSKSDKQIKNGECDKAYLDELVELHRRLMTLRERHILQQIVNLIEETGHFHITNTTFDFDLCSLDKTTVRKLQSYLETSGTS
T cruzi inh: inhibitors of intracellular T. cruzi growth, primary screen, luminescence, NIH3T3 host cells; 300,000 compounds, 1.4% hits; AID 1885, 2009; T. cruzi beta-gal in NIH3T3, 90 h; inhibition, % (test concentration not listed);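 active means mean inhibition across valid replicates above about 55%, limit read from the data; inconclusive means mean below that limit but half or more replicates reach it; inactive means mean below it, under half of replicates reach it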;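 further: signal also drops with host cell toxicity which is not excluded here; 0% = plate median of DMSO wells and 100% = zero luminescence signal; higher percent means less beta-gal luminescence so fewer parasites; stock transfer was 50 nL into about 50 µL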
Calb FLC: C. albicans growth inhibition with fluconazole, primary screen, CaCi-2 strain, Alamar Blue fluorescence; growth inhibition, % (test concentration not listed); C. albicans CaCi-2 (fluconazole-resistant clinical isolate) + fluconazole, 48 h; 300,000 compounds, 0.57% hits;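 active means most replicates above 75%; inconclusive means exactly half above 75%; inactive means most below 75%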;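 further: all wells also contain fluconazole at 8 µg/ml as a sub-toxic cotreatment; 0% = median of DMSO wells and 100% = median of geldanamycin control wells; wells of about 8 µL received 7.5 nL stock; the first replicate is given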
Bfl-1 A1 inh: caspase 3/7 activation in MEF A1-2A-BIM cells, primary screen, A1 inhibitor project, cell-based, luminescence, HTS; Caspase-Glo 3/7 luminescence, 3 h; percent of clofoctol response, vehicle zero; caspase activation, % (concentration not given with the values); 330,000 compounds, 0.066% hits; AID 2462, 2010;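 active means over half of replicate activation scores above 10%, or exactly half above 10 with the replicate mean above 10; inconclusive means replicate mean below 10 yet half the replicates above 10; inactive means over half of replicates below 10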;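 further: wells of about 30 µL received 50 nL stock; many hits fall short of the cut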
RanGTP-Impb inh: inhibitors of RanGTP-importin-beta interaction, primary screen, biochemical, FRET, CFP-Ran, YFP-importin-beta, homogeneous | Ran GTPase (GTP-bound) - importin-beta complex | cell-free CFP-Ran/YFP-importin-beta FRET ratio | inhibition, % (no concentration beside the values) | 300,000 compounds, 1.1% hits;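 active means most replicates above 15%; inconclusive means exactly half above 15%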;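 further: 0% = DMSO wells and 100% = Ran loaded with GDP instead of GTP; wells of about 40 µL received 100 nL stock; the first replicate is given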
rRNA inh HTS OD600: also measured in rRNA inh HTS; calls as there; OD600 change, %; measured here: OD600 growth;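 optical density of the mix in the first replicate; 0 = DMSO median and -100 = no signal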
rRNA inh HTS RFP: recorded beside rRNA inh HTS, whose call it bears; RFP signal change, %; measured here: RFP humanized mutant strains;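 first replicate; 0 = DMSO median and -100 = no signal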
* hit, by the source's call; ? = inconclusive; . = no result given. Some of the compounds tested. The share of hits here may be higher or lower than overall.

SMILES | rRNA inh HTS | rRNA inh HTS OD600 | rRNA inh HTS RFP | Vif TR-FRET | Beta cell apopt | AF4-AF9 inh | T cruzi inh | Calb FLC | Bfl-1 A1 inh | RanGTP-Impb inh
COc1ccc(/C=C2\CCCC3C2=NC(=S)NC3c2ccc(OC)cc2)cc1 (stereo unspecified) | . | . | . | 9% | -7 | . | 7 | 4 | 0.5 | -0.7
COc1ccc(C(=O)N/N=C/c2ccc(OC(=O)c3ccccc3)cc2)cc1 | . | . | . | 0% | 1 | . | -1 | 6 | -0.1 | -3.4
CCOC(=O)Cc1csc(NC(=O)c2cc(=O)c3ccccc3o2)n1 | -31 | -25 | -8.0 | 1% | 3 | -0.6 | -14 | 6 | -0.6 | -1.2
Cc1c(C=O)c2ccccc2n1CC(=O)NCc1ccccc1 | 8 | -1 | 1.7 | -26% | 2 | -1.1 | -15 | 0 | 0.0 | -6.1
Cc1cccc2sc(NC(=O)c3cccc(S(=O)(=O)N4CCc5ccccc54)c3)nc12 | . | . | . | 11% | 14 | . | 34 | -1 | -0.4 | 4.1
CN1C(=O)/C(=C2\SC(=S)N(NC(=O)c3cccnc3)C2=O)c2ccccc21 | 8 | 14 | -0.5 | . | . | -1.2 | -10 | 1 | 1.4 | -0.3
C/C(CC(=O)Nc1ccc2c(c1)OCO2)=N\NC(=O)OC(C)(C)C | 3 | 3 | -3.1 | 12% | 1 | -2.4 | 7 | -24 | 0.0 | 0.4
CCOc1ccc(C)cc1S(=O)(=O)n1ccnc1 | . | . | . | 3% | 3 | . | -20 | 6 | 0.1 | 1.9
CCN(CC)CCN1C(=O)C2C(C(=O)Nc3ccc(Br)cc3)C3C=CC2(O3)C1C(=O)NC1CCCCC1 (stereo unspecified) | 4 | 4 | 1.1 | . | -4 | -3.1 | 4 | -9 | -1.2 | -1.2
Cc1cc(C)c2nc(-c3ccccn3)cc(C(=O)Nc3ccc(S(=O)(=O)Nc4cc(C)on4)cc3)c2c1 | . | . | . | 18% | 6 | . | 12 | -1 | 0.6 | -0.7
CNC(=O)c1ccc(NC(=O)C2CCN(c3ncnc4sc(C)c(C)c34)CC2)cc1 | 0 | -4 | 1.6 | . | -5 | -2.6 | -1 | 0 | -0.3 | 6.9
O=C(NCCSc1c(-c2ccccc2)[nH]c2ccccc12)c1cc2ccccc2oc1=O | 5 | 9 | -1.1 | 8% | 1 | 8.5 | -18 | -4 | -0.6 | -2.8
O=C(Nc1c(Cl)cc(Cl)cc1-c1nc2ccccc2s1)c1ccc(Br)o1 | 7 | 16 | 5.9 | -8% | 2 | -9.3 | 0 | -3 | 0.0 | -2.0
Cc1[nH]c(=O)[nH]c(=O)c1S(=O)(=O)N1CCCC(C(=O)NCc2ccc3c(c2)OCO3)C1 (stereo unspecified) | 5 | -12 | -2.6 | . | 1 | -7.9 | 11 | 5 | 0.7 | -2.8
Cn1c(=O)[nH]c(=O)c2c1nc(Br)n2Cc1ccccc1Cl | . | . | . | -22% | 4 | . | -4 | -3 | 1.0 | -2.5
C=CCN(C(=O)CCC(=O)O)C1CC(=O)N(c2ccc(OCCC)cc2)C1=O (stereo unspecified) | . | . | . | -3% | -5 | . | -15 | -30 | 0.5 | 5.3
Cc1c(O)ccc2c3c(c(=O)oc12)CCC(C)C3 (stereo unspecified) | . | . | . | 5% | 1 | . | 5 | 11 | 0.3 | 37*
CCN(Cc1ccncc1)C(=O)C1CCC(=O)N(Cc2ccc(Cl)cc2)C1 (stereo unspecified) | 21 | 11 | 6.6 | 5% | -1 | -0.7 | -7 | 6 | 0.7 | 7.7
C=CCn1c(SCc2nc3ccccc3[nH]2)nnc1-c1cccc(OC)c1 | . | . | . | 7% | -3 | . | 2 | 13 | 0.2 | -0.1
CS(=O)(=O)c1ccc(Cl)c(NC(=O)COC(=O)c2ncc(Cl)c(Cl)c2Cl)c1 | 7 | 12 | -1.5 | -5% | 2 | -4.3 | -13 | -1 | ? | -0.2
Cc1ccc(CNS(=O)(=O)c2ccc(C(C)(C)C)cc2)n1C | 1 | 5 | 0.4 | 14% | -3 | . | 10 | -3 | 0.8 | -1.9
O=C(N/N=C/c1ccncc1)c1cccc([N+](=O)[O-])c1 | -3 | 16 | 2.2 | . | 2 | -1.8 | -5 | 0 | -0.8 | -2.2
CC(C)(C)OC(=O)NNC(=S)NCc1ccc(Cl)cc1 | . | . | . | 0% | -10 | . | -17 | -6 | 0.5 | -0.3
CC(=O)OC(C)(C)C1Cc2cc3ccc(=O)oc3cc2O1 (stereo unspecified) | 1 | 5 | -3.7 | -6% | 4 | -2.4 | -3 | 5 | 0.9 | 0.6
COc1cc2c(cc1OC)C(COc1ccccc1OC)N(C(=O)c1ccco1)CC2 (stereo unspecified) | -10 | -8 | 5.3 | . | -12 | 1.3 | 9 | -8 | 0.4 | -2.5
COCCCn1cnc2c(c1=O)c1nc3ccccc3nc1n2-c1ccc(C)cc1 | . | . | . | 0% | -1 | . | -6 | -9 | 1.2 | -0.7
O=C(CCCn1c(=O)oc2ccccc21)NNC(=O)COc1ccc(F)cc1 | 5 | 13 | 0.8 | . | -8 | 2.2 | . | . | 0.3 | .
Cc1cc(C(=O)NCc2ccco2)cs1 | -7 | -13 | -5.2 | ? | -2 | 3.3 | -1 | 1 | -0.1 | 1.0
O=C(/C=C/Nc1ccccc1Oc1ccccc1)c1ccco1 | -32* | -15* | 2.4* | 12% | . | 11 | 3 | 2 | -0.3 | -3.5
COc1ccccc1C(CC(=O)O)c1ccc2c(c1)OCO2 (stereo unspecified) | -4 | 4 | -0.6 | 2% | -4 | -2.9 | -1 | 3 | 0.5 | 0.7
CCN(CC)CCSc1nc(O)c(-c2ccccc2)c(=O)[nH]1 | . | . | . | 19% | -2 | . | -13 | -23 | -0.3 | -1.3
Cc1ccc(NC(=O)CSc2nc3sc(C)cc3c(=O)n2C)cc1 | 5 | 12 | 0.1 | . | 7 | -0.8 | 7 | 15 | 0.0 | 2.1
Cc1ccc2nc(SCC(=O)Nc3c(C)n(C)n(-c4ccccc4)c3=O)[nH]c2c1 | . | . | . | 33% | 0 | . | -12 | 0 | 0.3 | 0.8
Cc1ccc(Nc2nnc(SC(C)C(=O)NCC3CCCO3)s2)cc1 (stereo unspecified) | 2 | -2 | 3.2 | . | -2 | 0.8 | . | . | 1.1 | .
Cc1ccc(S(=O)(=O)NCc2ccccc2)cc1C(=O)NCC1CCCO1 (stereo unspecified) | 9 | 4 | 0.4 | -1% | . | -0.5 | -11 | 7 | 0.2 | ?
CC1=NN(c2cccc(F)c2)C(=O)/C1=C/c1ccc(N(C)C)cc1 | 3 | 4 | -1.5 | 8% | -1 | -19 | -11 | 5 | 0.2 | -2.3
C/C(=N\OCC(=O)N/N=C/c1ccccc1)c1cccs1 | . | . | . | 4% | -5 | . | -2 | -6 | -0.4 | 0.3
COc1ccc(C(=O)NCC(=O)OCC(=O)c2ccc3c(c2)NC(=O)CO3)cc1 | 10 | 32 | 3.8 | 0% | -7 | -6.3 | -9 | 4 | 0.3 | 2.1
CCCN(CCC)S(=O)(=O)c1ccc(C(=O)N2CCN(C)CC2)cc1 | 6 | 7 | -0.7 | -3% | 0 | -4.3 | 6 | -4 | 1.5 | -0.3
CCOC(=O)c1[nH]cnc1C(=O)Nc1cccc(Cl)c1 | 9 | 7 | -0.5 | -5% | 0 | -3.3 | -8 | -10 | 0.1 | 2.8
CCOc1ccc(C(=O)n2cc(C(=O)OC)c3ccccc32)cc1 | 17 | 1 | 2.3 | . | . | -8.6 | -2 | 29 | 1.5 | -2.3
COC(=O)Cc1cc(=O)n(-c2ccccc2)[nH]1 | 8 | 8 | 4.3 | 21% | -5 | 1.2 | 5 | 0 | 0.8 | -5.4
COc1ccc(C(=O)Nc2ccnc(-c3cccnc3)n2)cc1 | 14 | 4 | -2.6 | . | -4 | -0.5 | 1 | -1 | 1.1 | -0.9
Cc1cc(C)cc(OCC(=O)OCCN2C(=O)c3ccccc3C2=O)c1 | . | . | . | -1% | 0 | . | -10 | 1 | -0.2 | 3.0
COc1ccc(CCC(=O)NNC(=S)Nc2cccc(C(C)=O)c2)cc1 | 0 | -6 | -2.3 | 10% | 4 | 0.0 | -5 | 22 | -0.4 | -1.9
CSCC[C@H](NC(=O)OC(C)(C)C)C(=O)NCC1CCC(C(=O)O)CC1 (stereo partly specified) | 6 | 8 | 9.2 | 4% | -10 | -10 | -8 | 4 | 0.0 | 4.2
Cc1cccc(C)c1NC1=NC2(CCCCC2)N=C(N)N1 | . | . | . | 8% | 1 | . | 8 | 0 | -0.5 | -2.8
COc1ccc(N2CCN(S(=O)(=O)CCNC(=O)C3CC3)CC2)cc1 | 5 | 11 | -0.2 | -1% | . | 0.9 | 2 | 1 | 0.2 | -4.4
Cc1ccc(S(=O)(=O)N2CCOCC2)cc1NC(=O)COC(=O)c1cccnc1Cl | 4 | 2 | -2.9 | 2% | -11 | 0.4 | 5 | -7 | -0.2 | 6.4

Gathered by group: those above with two or more sulfur atoms (4)
SMILES | rRNA inh HTS | rRNA inh HTS OD600 | rRNA inh HTS RFP | Vif TR-FRET | Beta cell apopt | AF4-AF9 inh | T cruzi inh | Calb FLC | Bfl-1 A1 inh | RanGTP-Impb inh
Cc1cccc2sc(NC(=O)c3cccc(S(=O)(=O)N4CCc5ccccc54)c3)nc12 | . | . | . | 11% | 14 | . | 34 | -1 | -0.4 | 4.1
CN1C(=O)/C(=C2\SC(=S)N(NC(=O)c3cccnc3)C2=O)c2ccccc21 | 8 | 14 | -0.5 | . | . | -1.2 | -10 | 1 | 1.4 | -0.3
Cc1ccc(NC(=O)CSc2nc3sc(C)cc3c(=O)n2C)cc1 | 5 | 12 | 0.1 | . | 7 | -0.8 | 7 | 15 | 0.0 | 2.1
Cc1ccc(Nc2nnc(SC(C)C(=O)NCC3CCCO3)s2)cc1 (stereo unspecified) | 2 | -2 | 3.2 | . | -2 | 0.8 | . | . | 1.1 | .

Screening results from PubChem BioAssay.
